# Source: PubChem
# D2 PAM: Beta-Arrestin HTS for Positive Allosteric Modulators of the Human D2 Dopamine Receptor: Potentiators | DiscoveRx D2 beta-arrestin cells, luminescence, 90 min; 100% = 57 uM dopamine signal | potentiation, % (concentration not given with the values) | actives 0.23% (n = 360,000); active = potentiation of 50% or more; inconclusive = 30% to 50%; inactive = 30% or less;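 further: compound concentration not given in the record; tested on top of an EC20 dose of dopamine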
#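 PathHunter beta-arrestin assay in DiscoveRx D2 cells. Compounds were added with an EC20 of dopamine (50 nM final) for 90 min at 37 deg C. Luminescence was read 1 h after detection reagent, with 57 uM dopamine as the EC100 control.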
# D2 agonist: Beta-Arrestin HTS for Positive Allosteric Modulators of the Human D2 Dopamine Receptor: Agonists | D(2) dopamine receptor (Homo sapiens), P14416 | DiscoveRx PathHunter D2 beta-arrestin, luminescence, 90 min; 100% = 57 uM dopamine signal | activation, % (no concentration beside the values) | actives 0.084% (n = 360,000) | AID 624465, 2012; in the data active = activation above about 40%; inconclusive = about 15% to 40%; inactive = below about 15%; further: compound concentration not given in the record; the text of the record calls up to 30% inactive
#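 Agonist mode: compounds alone added to overnight-plated D2 PathHunter cells for 90 min at 37 C, with 57 uM final dopamine (EC100) defining full response. Beta-arrestin recruitment detected by chemiluminescent reagent, read after 1 h at ambient temperature.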
# gsp ag: qHTS for Agonist of gsp, the Etiologic Mutation Responsible for Fibrous Dysplasia/McCune-Albright Syndrome: qHTS; gsp mutant cells, cAMP HTRF, 30 min; control for the full effect not named in the record; Potency, µM (titrated, usually from 76.9 µM), for inactives: at the highest dose activation (cAMP increase), most hits filed as activators; actives 0.13% (n = 340,000); AID 624287, 2012; active = well fitted activation curve with a large enough effect; inconclusive = small, poorly fitted or top-dose-only effect, or another doubt; inactive = no such curve, though single readings can be large or run the other way; cell line not stated here;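 further: phosphodiesterase inhibitor Ro 20-1724 added with compounds to block cAMP breakdown; potency means the concentration at half of the fitted maximal effect; nearly all actives have a fitted effect of over 60% in size; about a fifth of the inactives were tested at one dose only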
#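 Cells stably selected in G418 were plated at 2000/well, grown 16-24 hr, then given compounds in DMSO with the PDE inhibitor […] (300 uM solution added) for 30 min at 37C; cAMP was read by HTRF.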
# gsp antag: qHTS for Antagonists of gsp, the Etiologic Mutation Responsible for Fibrous Dysplasia/McCune-Albright Syndrome: qHTS. actives 0.4% (n = 340,000). gsp-mutant cells, cAMP HTRF, 30 min; control for the full effect not named in the record. Potency, µM (highest dose often 76.9 µM), for inactives: at the highest dose activity change, negative = inhibition, most hits filed as inhibitors; active = falling curve of any shape with a large fitted effect; inconclusive = falling curve, mostly with a smaller effect; inactive = flat or rising curve; cell line not stated here;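 further: intracellular cAMP measured with PDE inhibitor Ro 20-1724 present during compound exposure; potency means the concentration at half of the fitted maximal effect; on the % scale 0 is the no-effect control and ±100 the full control effect; nearly all actives have a fitted effect of over 65% in size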
#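 Cells in G418 medium, seeded 16-24 h, 37C; buffer exchange to DPBS + 1 mM CaCl2, 0.5 mM MgCl2, 0.05% BSA; cpds in DMSO + […] (300 uM stock), 30 min 37C; HTRF cAMP detection.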
# CtBP-E1A inh: qHTS Assay for Inhibitors of the CtBP/E1A Interaction; CtBP / adenovirus E1A interaction (AlphaScreen); AlphaScreen GST-E1A/His-CtBP binding, 1536-well; hits give low values; control for the full effect not named in the record; activity change, % (test concentration not listed); actives 0.49% (n = 340,000); AID 651724, 2012; in the data active means activity change below about -65%; inconclusive means about -30% to -65%; inactive means above about -30%; further: on the % scale 0 is the no-effect control and ±100 the full control effect; compound concentration not given in the record
#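 AlphaScreen with 125 nM GST-E1A and 125 nM His-CtBP (5X stocks) in Tris pH 8.0, 300 mM NaCl, BSA, Tween 20, TCEP. Compounds preincubated 2 h at 37 deg C, then glutathione donor/nickel acceptor beads added for 1 h at 37 deg C in dark.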
# Six1-Eya2 blk: qHTS Assay for Inhibitors of the Six1/Eya2 Interaction. Homeobox protein SIX1 (Homo sapiens) + Protein phosphatase EYA2 (Homo sapiens), …. AlphaScreen GST-Six1/His-Eya2 binding, biochemical; hits give low values; control for the full effect not named in the record. activity change, % (no concentration beside the values). actives 0.56% (n = 360,000). AID 651725, 2012; in the data active = activity change below about -65%; inconclusive = about -30% to -65%; inactive = above about -30%; further: on the % scale 0 is the no-effect control and ±100 the full control effect; compound concentration not given in the record
# Target sequence (O00167 whole entry, looked up): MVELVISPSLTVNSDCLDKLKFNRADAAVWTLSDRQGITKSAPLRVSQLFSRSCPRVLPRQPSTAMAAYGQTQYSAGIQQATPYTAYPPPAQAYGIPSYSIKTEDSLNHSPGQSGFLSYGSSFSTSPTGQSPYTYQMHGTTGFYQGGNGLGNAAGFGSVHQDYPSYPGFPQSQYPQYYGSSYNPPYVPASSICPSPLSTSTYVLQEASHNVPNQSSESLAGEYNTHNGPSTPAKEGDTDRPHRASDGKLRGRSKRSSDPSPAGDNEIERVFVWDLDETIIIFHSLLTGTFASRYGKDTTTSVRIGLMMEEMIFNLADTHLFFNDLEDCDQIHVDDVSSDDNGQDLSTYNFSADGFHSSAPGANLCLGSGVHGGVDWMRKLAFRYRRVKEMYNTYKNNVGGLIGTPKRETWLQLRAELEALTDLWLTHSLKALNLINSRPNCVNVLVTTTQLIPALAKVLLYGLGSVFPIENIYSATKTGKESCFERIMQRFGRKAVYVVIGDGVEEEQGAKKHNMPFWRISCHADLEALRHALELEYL
# Target sequence (Q15475 whole entry, looked up): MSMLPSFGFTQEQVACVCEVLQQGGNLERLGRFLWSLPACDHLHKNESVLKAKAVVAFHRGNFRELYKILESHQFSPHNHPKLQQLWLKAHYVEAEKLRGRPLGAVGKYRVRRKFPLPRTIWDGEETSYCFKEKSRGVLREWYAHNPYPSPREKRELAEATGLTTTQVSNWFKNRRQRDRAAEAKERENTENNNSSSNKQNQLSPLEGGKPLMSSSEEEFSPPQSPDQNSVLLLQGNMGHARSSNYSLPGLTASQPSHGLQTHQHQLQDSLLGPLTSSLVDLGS
#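 AlphaScreen luminescence read after one hour at 37 °C in darkness. Pin-transferred compounds met GST-Six1 and His-Eya2 protein (5X stock 250 nM/500 nM) plus glutathione donor and Ni-chelate acceptor beads (5X, 50 ug/mL).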
# * hit, by the source's call; u = inconclusive; x = not tested or not shown; [ ] = dose if it differs, or a comment.
SMILES,D2 PAM,D2 agonist,gsp ag,gsp antag,CtBP-E1A inh,Six1-Eya2 blk
CC(C)(C)c1nnc(NC(=O)c2cccnc2Cl)s1,-3,-1.1,-43%,1%,12,11
N#Cc1ccsc1NC(=O)COC(=O)c1ccc2ccccc2c1,-4,-0.5,-1%,-11%,-4,-2
O=S1(=O)CCC(n2nccc2-c2ccccc2)C1 (centres undefined),0,-3.2,10%,8%,6,5
Cc1cccc(C(=O)Nc2nnc(S(=O)(=O)N(C)Cc3ccco3)s2)c1,-6,-1.1,38%,-9%,0,-3
COc1ccccc1CNC(=O)[C@H](C)NC(=O)C1CCN(C(=O)[C@@H](N)CCSC)CC1,-29,-5.4,x,0%,4,8
COC(=O)c1ccccc1NC(=O)/C=C/c1ccco1,-20,-3.4,-20%,3%,-13,-2
C=CCOC(=O)C1=C[C@H](c2ccc(Br)cc2)C[C@H](OCc2ccc(CO)cc2)O1,-47,-4.7,x,-11%,1,2
O=C1NC(c2cccc3ccccc23)Nc2ccccc21 (centres undefined),-16,-2.6,6%,6%,5,2
O=C(C1CC1)N1CCc2cc(Br)c(S(=O)(=O)N3CCCCCC3)cc21,-3,1.7,u,u,-12,-9
CCSc1nnc(NC(=O)c2ccco2)s1,-9,4.4,u,2%,-5,10
CCOC(=O)C1(Cc2cccc(OC)c2)CCCN(Cc2c(C)nn(C(C)C)c2C)C1 (centres undefined),-25,-2.4,2%,5%,x,2
C1CCC2=NCCCN2CC1,-2,-1.7,-60%[inhibitor],15%,2,4
O=C(c1ccco1)N1CCN(Cc2cc(=O)c(OCc3cccc(Cl)c3)co2)CC1,1,3.0,-9%[15.4 µM],-17%,3,-3
Cc1cccc(OCC(=O)NNC(=O)Cn2c(=O)cnc3ccccc32)c1,-11,-5.7,6%,16%,-3,1
COc1ccccc1OCCn1cc(/C=N/NC(=O)c2ccncc2)c2ccccc21,6,5.5,2%[15.4 µM],u,-12,-14
CS(=O)(=O)Nc1ccc(C(=O)NCc2ccco2)cc1,-10,-2.3,7%,18%,2,3
O=C(COC(=O)c1ccc(Cl)c(S(=O)(=O)N2CCCC2)c1)NC1CCCC1,-8,-2.9,-13%,-5%,6,0
Cn1c(=O)c2c(ncn2CC(=O)N/N=C/C=C/c2ccco2)n(C)c1=O,-3,-3.1,29%[15.4 µM],15%,-9,-15
O=C(Cc1cccs1)NCCn1ccc2ccccc21,-10,-4.3,-70%[inhibitor],7%,-23,9
F[B-](F)(F)c1cc2ccccc2s1,-1,1.0,x,11%,1,10
CCOC(=O)N1CCN(C(=O)c2cccc(-n3c(=S)[nH]c4cc(Cl)ccc4c3=O)c2)CC1,-5,0.4,13%,-35%,-1,1
CCCCC1Cc2[nH]c(=S)[nH]c(=O)c2C(c2ccc(F)cc2)O1 (centres undefined),-4,7.1,x,x,0,3
COc1ccc(N=Nc2c(C)n[nH]c2C)cc1,-4,-3.6,u,-8%,-10,-19
C=CSc1sc(Cl)c(N(C)C)c1[N+](=O)[O-],-7,4.9,13%,13%,2,-3
CCCCC(=O)Nc1cccc(C(=O)N/N=C/c2ccc(OC)cc2OC)c1,-6,-2.2,10%,-8%,-7,-8

# The last 4 records of the section before come first, to join the parts:
SMILES,D2 PAM,D2 agonist,gsp ag,gsp antag,CtBP-E1A inh,Six1-Eya2 blk
CCCCC1Cc2[nH]c(=S)[nH]c(=O)c2C(c2ccc(F)cc2)O1 (centres undefined),-4,7.1,x,x,0,3
COc1ccc(N=Nc2c(C)n[nH]c2C)cc1,-4,-3.6,u,-8%,-10,-19
C=CSc1sc(Cl)c(N(C)C)c1[N+](=O)[O-],-7,4.9,13%,13%,2,-3
CCCCC(=O)Nc1cccc(C(=O)N/N=C/c2ccc(OC)cc2OC)c1,-6,-2.2,10%,-8%,-7,-8
CCCn1ccc2c(OCC(=O)Nc3ccc(NC(C)=O)cc3)cccc2c1=O,16,-5.7,0%,1%,-28,-5
Cc1[nH]c2ccccc2c1/C=C/c1nc2ccccc2c(=O)n1-c1cccc([N+](=O)[O-])c1,-13,-0.8,-5%,-9%,0,-13
CC(NC(=O)c1ccc(Cl)s1)C1CCCO1 (centres undefined),0,-2.0,4%,4%,9,2
O=S(=O)(c1cc(C(F)(F)F)ccc1Cl)N1CCN(c2ncnc3ccccc23)CC1,8,2.5,-4%[15.4 µM],u,0,1
COc1cc(/C=c2\s/c(=C(/C#N)C(=O)N3CCCC3)n(-c3ccccc3)c2=O)ccc1O,-6,-2.5,11%,-3%[15.4 µM],0,-5
Cc1cccc(OCc2nc3c4c(ncn3n2)-c2ccccc2CC42CCCC2)c1,25,1.9,-9%,9%,-2,1
CCN(CC)S(=O)(=O)c1cc(NC(=O)Cn2cnc3ccccc3c2=O)ccc1C,-7,1.6,14%,-11%,-14,-1
CSc1cc(-c2ccc(Cl)cc2)c(C(=O)NC(C)C)s1,-13,-2.1,u,3%,17,8
O=C(O)C1CCCCC1C(=O)Nc1nccs1 (centres undefined),-7,-0.9,-58%[inhibitor],4%,10,-2
COc1ccccc1Oc1nc(-c2cccnc2)nc2ccccc12,1,2.9,14%,-2%,-18,0
O=[N+]([O-])c1cc(S(=O)(=O)N2CCCC2)ccc1N/N=C1/CCCc2ccccc21,2,2.0,-20%,4%,-17,-13
COc1cccc(NC(=O)CSc2nc3ccccc3c(=O)n2Cc2cccs2)c1,13,-0.9,-7%,-6%,-6,-3
Cn1cccc1Cc1nnc(SCC(=O)Nc2ccc(F)cc2F)n1-c1ccc(F)cc1,-3,-1.7,-35%[inhibitor],-3%,-7,-17
COc1ccc2nc3oc(C(=O)NC4CCN(Cc5ccccc5)CC4)cc3cc2c1,-32,-3.4,-5%,9%,-2,-1
O=S(=O)(c1ccc2nc(N3CCN(c4ccc(F)cc4)CC3)ccc2c1)N1CCCCC1,-20,-9.8,-13%,11%,x,-2
CCCCCCOc1ccc(OC(=O)c2cccnc2)cc1,2,0.4,3%,5%,5,31
CCOc1ccccc1Nc1cc(C)nc2ccc(C)cc12,-23,-0.6,-1%[15.4 µM],-3%,-2,0
O=C(O)CCN1C(=O)C2C3C=CC(C2C1=O)C1C(=O)N(CCC(=O)O)C(=O)C31 (centres undefined),-6,-0.2,u,6%,-10,-13
Cc1ccc2c(CN3CCCc4ccccc43)cc(=O)oc2c1C,-22,-0.8,-1%,2%,-2,-11
c1ccc(SSc2ccccn2)nc1,-9,-6.1,-4%[15.4 µM],1%,2,11
CCc1cc2c(=O)c(-c3nc4ccccc4n3C)c(C(C)C)oc2c(CN2CCN(C)CC2)c1O,-11,-2.0,u,-12%,0,-2
O=[N+]([O-])c1ccc(CNc2cccc(Cl)c2)s1,26,11,-10%[15.4 µM],2%,0,-17
CC(C)[C@H](NC(=O)OCc1ccccc1)C(=O)OCC(=O)N1CCN(c2ccccc2)CC1,-5,1.1,-3%,8%,-3,-11
O=C(Nc1nnc(SCc2ccc(F)cc2)s1)c1cnccn1,-12,-2.7,-16%[15.4 µM],x,6,28
CC(=O)Nc1nnc(CCS(=O)(=O)c2ccc(Cl)cc2)s1,3,-2.4,-21%[15.4 µM],6%,3,10

# 2 consecutive records out of the list so far, for reference:
SMILES,D2 PAM,D2 agonist,gsp ag,gsp antag,CtBP-E1A inh,Six1-Eya2 blk
CCCn1ccc2c(OCC(=O)Nc3ccc(NC(C)=O)cc3)cccc2c1=O,16,-5.7,0%,1%,-28,-5
Cc1[nH]c2ccccc2c1/C=C/c1nc2ccccc2c(=O)n1-c1cccc([N+](=O)[O-])c1,-13,-0.8,-5%,-9%,0,-13

# Continued.
SMILES,D2 PAM,D2 agonist,gsp ag,gsp antag,CtBP-E1A inh,Six1-Eya2 blk
COc1cc(CNC(=O)Nc2nc(C(N)Cc3ccc(Cl)cc3)cs2)cc(OC)c1OC (centres undefined),10,6.5,x,x,-20,-26
Cc1ccc(-n2c(C)cc(/C=N/NC(=O)c3ccncc3)c2C)cc1C,-9,-22,-15%[15.4 µM],16%,-7,-11
CS(=O)(=O)N1CCCC(C(=O)NCCCN2CCN(Cc3ccccc3)CC2)C1 (centres undefined),-18,-2.4,-24%,0%,-1,5
CN(C)c1ccc(NC(=S)Nc2ccc3c(c2)c(=O)n(C)n3-c2ccc(C(C)(C)C)cc2)cc1,8,3.5,x,x,u,u
COc1cc(/C=N/NC(=O)c2cc[n+]([O-])cc2)ccc1O,-7,-3.6,-7%,-8%,u,u
O=C(NNC(=O)c1ccc(-c2ccccc2)cc1)Nc1ccccc1F,-7,1.2,-3%[15.4 µM],13%,4,-3
O=C(c1ccc(OCC2CCCO2)cc1)N1CCN(c2ccccc2)CC1 (centres undefined),-4,-8.1,12%,9%,3,-1
N#Cc1c(C(F)(F)F)cc(-c2ccc(Cl)cc2)[nH]c1=O,19,-0.3,24%,35µM*,-4,2
COc1ccc(CCNC(=O)c2cnc3ccccn3c2=O)cc1,-1,-2.1,u,3%,-2,0
Cc1cccc(C(=O)NCC(=O)NCCSc2ccc(Br)cc2)c1,-3,-6.7,-56%[inhibitor],5%,1,-2
Cc1cc(=O)n2[nH]c(-c3ccccc3)cc2n1,-6,-6.2,-10%,-9%,1,-3
COC(=O)[C@]1(C)N[C@H](CN(C)C(C)=O)[C@@H]2C(=O)N(Cc3ccccc3)C(=O)[C@@H]21,-2,1.6,x,5%,3,19
COc1cc(OC)cc(C(=O)NCC(=O)N2CCN(c3ccc(O)cc3)CC2)c1,u,12,6%[15.4 µM],u,-4,-6
Cc1cccc(Nc2c([N+](=O)[O-])c(=O)n(C)c3ccccc23)c1,-9,-11,5%[15.4 µM],8%,-23,-26
CC(=O)C1=C(O)C(=O)N(Cc2ccccc2)C1c1ccc(F)cc1 (centres undefined),2,0.9,u,1%,0,-14
COc1ccc(NS(=O)(=O)NC(=O)c2c(C)n(C)c3ccccc23)cc1,-13,-3.5,-12%,4%,-1,-1
COc1ccc(C2=NOC(C(=O)N3CCOCC3)C2)cc1OC (centres undefined),0,-0.1,-32%[inhibitor],3%,47,0
CCOC(=O)C(=CNc1cc(Cl)c(-c2ccco2)c(Cl)c1)C(=O)OCC,-16,-2.7,-20%,-23%,x,7
CS(=O)(=O)N(Cc1ccccc1)c1ccc(C(=O)Nc2ccc3c(c2)OCO3)cc1,-7,-1.1,-7%,-17%,-4,0
COc1ccc(-c2n[nH]c3c2CN(C(=O)c2ccccc2)CC3)cc1,7,3.3,19%,-18%,-13,-3
